High-throughput results (PubChem)
MLL AF4-AF9 inh: inhibitors of AF4 peptide binding to AF9, primary screen, biochemical, AlphaScreen, biotin-AF4 peptide, FLAG-AF9, single point. inhibition, % at 10 µM. Protein AF-9 (Homo sapiens), P42568. AID 651704, 2012. hit rate 0.47% among 350,000;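 active means every replicate reaching a set inhibition limit, whatever the replicate mean, cut at about 25% in these data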;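 further: 0% = plate neutral control median and 100% = total signal loss; the record names both 10 and 1 µM as test concentration; the first replicate is given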
Target sequence (P42568 whole entry, looked up): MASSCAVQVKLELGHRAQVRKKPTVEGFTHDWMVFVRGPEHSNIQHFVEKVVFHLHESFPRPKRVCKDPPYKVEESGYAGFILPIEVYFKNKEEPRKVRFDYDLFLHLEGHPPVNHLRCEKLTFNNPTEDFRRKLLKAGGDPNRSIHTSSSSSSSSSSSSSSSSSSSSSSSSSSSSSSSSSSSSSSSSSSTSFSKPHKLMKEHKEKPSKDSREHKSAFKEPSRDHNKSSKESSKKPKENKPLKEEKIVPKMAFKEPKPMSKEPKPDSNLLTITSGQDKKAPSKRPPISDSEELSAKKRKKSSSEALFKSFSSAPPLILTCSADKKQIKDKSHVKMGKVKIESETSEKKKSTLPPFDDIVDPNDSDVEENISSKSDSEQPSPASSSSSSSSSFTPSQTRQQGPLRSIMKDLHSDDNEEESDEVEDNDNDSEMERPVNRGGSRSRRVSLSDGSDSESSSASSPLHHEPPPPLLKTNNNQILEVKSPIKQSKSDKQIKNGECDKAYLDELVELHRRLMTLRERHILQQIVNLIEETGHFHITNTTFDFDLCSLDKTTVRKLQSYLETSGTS
Ecoli rRNA inh: reduced GFP signal of wild-type E. coli, primary screen, bacterial rRNA inhibitor project, GFP/RFP fluorescence, OD600, single point; E. coli WT GFP vs humanized-ribosome RFP mutants, 24 h; hits give low values; DMSO median 0, no signal -100; GFP signal change (wild-type ribosome), % (concentration not given with the values); hit rate 1.6% among 350,000; AID 720706, 2013;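 active means significant combined selectivity score with lowered wild-type GFP, culture density cut under 30%, mutant RFP and density less affected; inactive means any of these conditions unmet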; further: one replicate is shown; some compounds called inactive have numbers as strong as hits
Ecoli rRNA inh OD600: second read-out of Ecoli rRNA inh, no call of its own (marks repeat the call); OD600 change, %; measured here: OD600 growth;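 optical density of the mix in the first replicate; 0 = DMSO median and -100 = no signal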
Ecoli rRNA inh RFP: second read-out of Ecoli rRNA inh, no call of its own (marks repeat the call); RFP signal change, %; measured here: RFP humanized mutant strains;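 first replicate; 0 = DMSO median and -100 = no signal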
* hit, by the source's call. Only part of the results is shown. The share of hits here may be higher or lower than overall.

SMILES	MLL AF4-AF9 inh	Ecoli rRNA inh	Ecoli rRNA inh OD600	Ecoli rRNA inh RFP
Cc1ccc(NC(=O)CSc2nnc(COc3ccccc3F)n2N)cc1S(=O)(=O)N1CCOCC1	1.7	-3	-8	3.3
C[C@@H]1CN([C@@H](C)CO)C(=O)c2cc(C3=CCCC3)cnc2O[C@H]1CN(C)Cc1ccc(C(=O)O)cc1	-2.5	3	-6	-1.1
C[C@H](CO)N1C[C@H](C)[C@H](CN(C)C(=O)C2CC2)Oc2cc(Br)ccc2S1(=O)=O	-1.7	0	6	-3.1
Cc1ccc(-c2nc3c4ccccc4ccn3c2CC2CCCCC2)cc1	2.6	14	26	12
CO[C@H]1CN(C)C(=O)c2ccc(NS(C)(=O)=O)cc2OC[C@H](C)N(C(=O)C2CCOCC2)C[C@@H]1C	-3.6	3	5	-0.5
C[C@H](CO)N1C[C@H](C)[C@@H](CN(C)C(=O)Nc2cccc3ccccc23)OCCCC[C@H](C)Oc2ccc(NS(C)(=O)=O)cc2C1=O	-9.7	-1	-6	-0.5
Cn1ccc2c(-c3cccnc3)cc3c(c21)C1CCC3C1 (configuration not stated)	4.3	-1	-6	0.4
COc1ccccc1CNc1nc(NCc2cccc(OC)c2OC)c2sccc2n1	-4.6	-60	-75	-20
CCS(=O)(=O)N1[C@H](C#N)[C@@H](c2ccc(C3=CCCCC3)cc2)[C@H]1CO	1.9	4	12	0.4
C[C@@H]1CCCCO[C@H](CN(C)C(=O)Nc2ccc(C(F)(F)F)cc2)[C@@H](C)CN([C@H](C)CO)C(=O)c2cc(NS(=O)(=O)c3cn(C)cn3)ccc2O1	-2.9	3	7	-1.2
C[C@H](CO)N1C[C@H](C)[C@H](CN(C)Cc2ccc3c(c2)OCO3)Oc2ccc(NS(=O)(=O)c3ccc(F)cc3)cc2C1=O	-1.4	5	5	1.6
CSc1ccc(C(=O)Nc2cc(S(=O)(=O)N3CCOCC3)ccc2N2CCOCC2)cc1[N+](=O)[O-]	1.8	-2	11	0.4
CCNC(=O)[C@@H]1[C@@H](CO)[C@@H]2Cn3c(ccc(-c4cccc(F)c4)c3=O)[C@H]1N2C(=O)c1ccccn1	-1.2	0	5	0.9
CC=Cc1ccc2n(c1=O)C[C@@H]1[C@@H](CO)[C@H](C(=O)N3CCc4ccccc4C3)N(C(=O)COC)[C@H]21 (mixture of isomers)	-4.2	1	-3	-3.0
C[C@@H](NC(=O)C[C@H]1CC[C@H]2[C@@H](COC[C@@H](O)CN2C(=O)Nc2cccc(Cl)c2)O1)c1ccccc1	1.5	-56	-71	-16
CCNC(=O)C1(C)CCN(Cc2ccccc2-c2ccccc2)C1 (configuration not stated)	-0.7	3	13	-2.1
COC(=O)C[C@@H]1C[C@@H]2c3cc(N(C)C)ccc3O[C@@H]2[C@H](CO)O1	-1.0	3	7	-3.0
C[C@H](CO)N1C[C@H](C)[C@@H](CN(C)S(=O)(=O)c2cccs2)Oc2ccc(NC(=O)NC3CCCCC3)cc2CC1=O	1.5	-7	-17	0.2
Cc1noc(C)c1S(=O)(=O)Nc1cccc2c1O[C@H](CN(C)S(C)(=O)=O)[C@H](C)CN([C@H](C)CO)C2=O	-2.1	1	-8	-2.0
CN1CCN(C(=O)C[C@@H]2CC[C@@H](NC(=O)Cc3ccccn3)[C@@H](CO)O2)CC1	-3.6	2	4	-1.6
CCNC(=O)C1(C)CCN(C(=O)c2ccc(OC(F)F)cc2)C1 (configuration not stated)	0.2	8	15	6.6
C[C@H](CO)N1C[C@H](C)[C@H](CN(C)C(=O)Nc2ccc3c(c2)OCO3)Oc2cc(C#Cc3cccnc3)ccc2S1(=O)=O	6.5	-6	-11	3.4
COc1cccc(-c2ccc([C@@H]3[C@H](C#N)N(C(=O)Cc4ccccc4)[C@H]3CO)cc2)c1	0.4	-38	-70	-8.7
NCC[C@H]1CC[C@@H](NC(=O)C2CCCCC2)[C@@H](CO)O1	2.3	-1	-4	-2.1
O=C(NCC[C@@H]1CC[C@H](NC(=O)c2cnccn2)[C@H](CO)O1)c1ccc2c(c1)OCO2	-1.4	1	4	1.8
CN1CCCCN2[C@@H](CO)[C@H](c3ccc(-c4cccnc4)cc3)[C@@H]2C1	-0.3	1	1	4.0
CO[C@@H]1CN(C)C(=O)c2cc(NC(=O)C3CCC3)ccc2OC[C@H](C)N(Cc2ccccn2)C[C@@H]1C	-0.6	1	2	-0.8
COc1cc(CNc2ncnc3c2ncn3[C@H]2CN(Cc3ccc(Cl)cc3)C[C@@H](CO)O2)cc(OC)c1OC	1.5	-3	-8	2.8
Cc1cccc(CN2CCN(C3CN(Cc4cn(Cc5ccc(Cl)cc5)nn4)S(=O)(=O)C3)CC2)c1 (configuration not stated)	2.5	-25*	-14*	0.5*
CC(C)NC(=O)Nc1ccc2c(c1)C(=O)N([C@H](C)CO)C[C@@H](C)[C@H](CN(C)S(=O)(=O)c1ccc(F)cc1)OCCCC[C@H](C)O2	-2.0	0	2	1.8
COc1ccc(-c2ccc([C@H]3[C@@H](CO)N4C(=O)CN(C(=O)NC(C)C)C[C@H]34)cc2)cc1	-11	0	-14	0.7
COc1cccc(NC(=O)N[C@@H]2CC[C@@H](CC(=O)Nc3ccccc3)O[C@H]2CO)c1	1.5	-5	-5	-0.1
C[C@H]1CN([C@@H](C)CO)S(=O)(=O)c2ccc(-c3ccccc3)cc2O[C@H]1CN(C)C(=O)CC1CC1	2.0	-8	-21	5.2
CC(C)C#Cc1ccc2c(c1)O[C@H](CN(C)CC1CCOCC1)[C@H](C)CN([C@H](C)CO)S2(=O)=O	3.2	4	5	1.2
CN(Cc1ccc(Cl)cc1)C(C(=O)NC1CCCCC1)c1cc2ccccc2o1 (configuration not stated)	0.2	13	6	1.3
COCCN1C(=O)CCC1(C)C(=O)Nc1ccc2ccccc2c1 (configuration not stated)	-0.4	-8	4	-1.4
C[C@H]1CN([C@@H](C)CO)C(=O)CCCn2nncc2CO[C@@H]1CN(C)C(=O)C1CCCCC1	-1.1	2	4	-0.7
Nc1[nH]c(C(=O)c2ccccc2)c(-c2ccc(Br)cc2)c1C(=O)NC1CC1	0.0	-4	-19	-4.2
C[C@@H]1CN([C@H](C)CO)C(=O)c2cc(NC(=O)C3CC3)ccc2O[C@@H]1CN(C)S(=O)(=O)c1ccc(Cl)cc1	-1.0	-3	-1	1.1
CCC(=O)N[C@H]1C=C[C@@H](CC(=O)NCc2ccc(OC)cc2)O[C@H]1CO	-1.0	0	1	-1.3
C[C@H]1CN([C@@H](C)CO)C(=O)c2cc(-c3ccc(C(=O)N(C)C)cc3)cnc2O[C@H]1CN(C)C	-0.5	-2	-1	-0.7
Cn1c(=O)c2cc(NC(=O)Cc3ccccc3F)ccc2n1Cc1ccc(Cl)cc1	-0.4	2	16	-0.4
C[C@H](CO)N1C[C@H](C)[C@H](CN(C)Cc2ccc(Cl)c(Cl)c2)OCCCC[C@H](C)Oc2ccc(NC(=O)C3CCCCC3)cc2C1=O	1.0	-1	6	0.1
C[C@@H]1CN([C@H](C)CO)C(=O)c2cc(NC(=O)Cc3cn(C)c4ccccc34)ccc2O[C@@H]1CN(C)Cc1ccc(-c2ccccc2)cc1	-1.3	1	6	1.4
COc1ccc(S(=O)(=O)N(C)C[C@H]2Oc3c(NC(=O)c4ccncc4)cccc3C(=O)N([C@@H](C)CO)C[C@@H]2C)cc1	-2.0	-1	-3	-4.8
C[C@H](CO)N1C[C@H](C)[C@H](CN(C)S(=O)(=O)c2ccccc2)Oc2ccc(N(C)C)cc2CC1=O	0.0	2	3	-0.6
Cc1cc(F)ccc1C(O)c1ncc(-c2ccccc2C(F)(F)F)[nH]1 (configuration not stated)	1.8	4	-9	-2.1
CCCNC(=O)N[C@H]1CC[C@H](CCn2cc(C3CCCCC3)nn2)O[C@@H]1CO	-12	0	-2	-2.2
COc1ccc(CN(C)C[C@@H]2Oc3ccc(NC(=O)NC(C)C)cc3CC(=O)N([C@H](C)CO)C[C@H]2C)cc1	-2.5	3	-1	1.0
COc1ccc(S(=O)(=O)N[C@@H]2C=C[C@@H](CC(=O)N3CCN(c4ccccc4)CC3)O[C@H]2CO)cc1	0.4	3	-11	-3.0
COCC(=O)N(C)C[C@H]1Oc2cc(-c3ccccc3)ccc2S(=O)(=O)N([C@H](C)CO)C[C@@H]1C	-2.5	0	0	-3.6
COc1cccc(CNC(=O)C[C@H]2C=C[C@H](NC(C)=O)[C@H](CO)O2)c1	-0.4	5	6	-0.9
COc1ccc(NC(=O)C2(C)CCN2CC2CCCCC2)cc1OC (configuration not stated)	2.3	0	-4	-1.0
O=C(Cc1ccccc1)NC[C@H]1N[C@H](CO)[C@@H]1c1ccc(C2=CCCC2)cc1	2.4	-22	-66	15
N#C[C@@H]1[C@H](c2ccccc2C2=CCCCC2)[C@H](CO)N1C(=O)c1ccccn1	-9.1	-28	-39	-9.9
C[C@@H]1CN([C@@H](C)CO)C(=O)c2cccc(NS(=O)(=O)c3ccccc3)c2O[C@@H]1CN(C)Cc1ccncc1	0.3	-1	-4	-0.1
C[C@@H]1CN([C@@H](C)CO)C(=O)c2cc(-c3ccc(C(=O)N(C)C)cc3)cnc2O[C@H]1CN(C)C(=O)c1ccncc1	-2.8	4	7	-0.7
C[C@H]1CN([C@@H](C)CO)C(=O)Cc2cc(NC(=O)C3CCCCC3)ccc2O[C@@H]1CN(C)S(=O)(=O)c1ccc(F)cc1	-10.0	-4	-9	0.6
C[C@H](NC(=O)[C@H]1[C@H](CO)[C@H]2Cn3c(cccc3=O)[C@@H]1N2CCC(F)(F)F)c1ccccc1	-1.8	0	4	-1.0
Cc1ccc(S(=O)(=O)Nc2ccc3c(c2)C(=O)N(C)[C@H]2CC[C@H](CC(=O)O)O[C@@H]2CO3)cc1	-0.1	7	10	-2.1
Next part.
SMILES	MLL AF4-AF9 inh	Ecoli rRNA inh	Ecoli rRNA inh OD600	Ecoli rRNA inh RFP
CC(C)C#Cc1ccc([C@H]2[C@@H](CO)N3CCCCN(C(=O)Nc4ccccc4)C[C@@H]23)cc1	2.4	-11	-41	24
COc1ccc2c3c(n(C)c2c1)[C@@H](CO)N(C(=O)C1CC1)CC31CCN(CC2CCCC2)CC1	-2.8	-1	4	-2.3
C[C@@H]1CN([C@H](C)CO)C(=O)c2cc(NC(=O)Nc3ccccc3)ccc2O[C@@H]1CN(C)Cc1ccc(C(=O)Nc2ccccc2N)cc1	-0.5	-3	2	4.6
COc1ccccc1-c1ccc2c(c1)[C@@H]1[C@@H](CCN1C(=O)c1ccncc1)[C@@H](CO)N2	1.7	-2	-3	-8.9
C[C@@H]1CN([C@@H](C)CO)C(=O)c2cc(NS(=O)(=O)c3cccs3)ccc2O[C@H]1CN(C)S(=O)(=O)c1ccc(F)cc1	-1.0	-3	-7	3.0
CCC(=O)N[C@@H]1CC[C@@H](CC(=O)NCCN2CCCCC2)O[C@H]1CO	-3.5	1	11	1.4
CC=Cc1ccc2n(c1=O)C[C@H]1[C@H](CO)[C@@H](C(=O)OC)N(C(C)=O)[C@@H]21 (mixture of isomers)	-0.3	3	7	-2.0
O=C(NCc1ccccc1)C(c1ccccc1)n1c(-c2ccncc2)nc2ccccc21 (configuration not stated)	0.3	-2	-8	1.0
CCCNC(=O)Nc1ccc2c(c1)C(=O)N(C)C[C@@H](OC)[C@@H](C)CN(C(=O)C1CCOCC1)[C@@H](C)CO2	-1.0	4	5	-0.4

An excerpt of these results, with values under each structure.
Under each structure: MLL AF4-AF9 inh	Ecoli rRNA inh	Ecoli rRNA inh OD600	Ecoli rRNA inh RFP
- CC(C)C#Cc1ccc([C@H]2[C@@H](CO)N3CCCCN(C(=O)Nc4ccccc4)C[C@@H]23)cc1
  2.4	-11	-41	24
- COc1ccc2c3c(n(C)c2c1)[C@@H](CO)N(C(=O)C1CC1)CC31CCN(CC2CCCC2)CC1
  -2.8	-1	4	-2.3
- C[C@@H]1CN([C@H](C)CO)C(=O)c2cc(NC(=O)Nc3ccccc3)ccc2O[C@@H]1CN(C)Cc1ccc(C(=O)Nc2ccccc2N)cc1
  -0.5	-3	2	4.6
- COc1ccccc1-c1ccc2c(c1)[C@@H]1[C@@H](CCN1C(=O)c1ccncc1)[C@@H](CO)N2
  1.7	-2	-3	-8.9
- C[C@@H]1CN([C@@H](C)CO)C(=O)c2cc(NS(=O)(=O)c3cccs3)ccc2O[C@H]1CN(C)S(=O)(=O)c1ccc(F)cc1
  -1.0	-3	-7	3.0
- CCC(=O)N[C@@H]1CC[C@@H](CC(=O)NCCN2CCCCC2)O[C@H]1CO
  -3.5	1	11	1.4
- CC=Cc1ccc2n(c1=O)C[C@H]1[C@H](CO)[C@@H](C(=O)OC)N(C(C)=O)[C@@H]21 (mixture of isomers)
  -0.3	3	7	-2.0
- O=C(NCc1ccccc1)C(c1ccccc1)n1c(-c2ccncc2)nc2ccccc21 (configuration not stated)
  0.3	-2	-8	1.0
- CCCNC(=O)Nc1ccc2c(c1)C(=O)N(C)C[C@@H](OC)[C@@H](C)CN(C(=O)C1CCOCC1)[C@@H](C)CO2
  -1.0	4	5	-0.4
